Rango release inh: qHTS Assay for Inhibitors of RanGTP induced Rango (Ran-regulated importin-beta cargo) - Importin beta complex dissociation; Snurportin-1 (Homo sapiens) + GTP-binding nuclear protein Ran (Homo sapiens) + Importin …; Biochemical FRET Rango-importin beta, RanGTP-induced dissociation; Potency, µM (doses to about 46.1 µM), for the others: at the top dose activity change, negative = inhibition; 340,000 tested, 0.071% active; AID 540253, 2011; active means falling FRET ratio curve, often poorly fitted, with flat reads before Ran was added; inconclusive means other falling curves, or compound fluorescence or quenching; inactive means flat or rising ratio curve;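 also: potency is read from the fitted curve at half-maximal effect; % of control where 0% means no effect; nearly all actives have a fitted effect of over 45% in size; -100% = wells without RanGTP and RCC1; the record marks most hits as doubtful in a second field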
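Rango/importin beta premix (0.1/0.25 uM final), PBS + 1 mM DTT + 0.02% Tween-20 + 0.1% BSA; cpd 5 min RT; FRET pre-read; + RanGTP-RCC1 (0.6 uM Ran, 2 mM GTP, 0.2 uM RCC1); 45 min RT; FRET post-read, ex 430, em 486/530 nm.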
Rango-impB inh: qHTS Assay for Inhibitors of Rango (Ran-regulated importin-beta cargo) - Importin beta complex formation. Potency, µM (highest dose often 92.2 µM), for inactives: at the highest dose inhibition of complex formation. Rango CFP/YFP FRET sensor + importin beta, 45 min. Importin subunit beta-1 (Homo sapiens), Q14974. 340,000 tested, 0.031% active. AID 540263, 2011; active = rising FRET ratio curve, often small or poorly fitted; inconclusive = mostly compound fluorescence or quenching in the first reads; inactive = flat curves in all reads;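 also: potency is read from the fitted curve at half-maximal effect; 0% = DMSO wells and 100% = buffer wells lacking importin beta; nearly all actives have a fitted effect of over 15% in size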
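FRET biosensor Rango (snurportin 1 IBB between N-terminal EYFP and C-terminal Cerulean), 50 nM in PBS/1 mM DTT/0.02% Tween-20/0.1% BSA, preincubated 5 min RT with compound; 0.125 microM importin beta added, 45 min RT, CFP/YFP FRET ratio read.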
GLA inh pH 4.5: qHTS Assay for Inhibitors of Human alpha-Galactosidase at pH 4.5 | activity change, negative = inhibition, % at 105 µM | purified enzyme, 4-MU-alpha-Gal fluorescence, pH 4.5 | Alpha-galactosidase A (Homo sapiens), P06280 | 230,000 tested, under 10 active | AID 1467, 2008; inconclusive = small, poorly fitted or top-dose-only inhibition, or a rising curve; inactive = flat fitted curve, though single readings scatter; no compound was filed as active;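 also: 0% = full activity with enzyme and -100% = basal without enzyme; dose as in the result columns while the protocol names 77 µM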
Target sequence (P06280 whole entry, looked up): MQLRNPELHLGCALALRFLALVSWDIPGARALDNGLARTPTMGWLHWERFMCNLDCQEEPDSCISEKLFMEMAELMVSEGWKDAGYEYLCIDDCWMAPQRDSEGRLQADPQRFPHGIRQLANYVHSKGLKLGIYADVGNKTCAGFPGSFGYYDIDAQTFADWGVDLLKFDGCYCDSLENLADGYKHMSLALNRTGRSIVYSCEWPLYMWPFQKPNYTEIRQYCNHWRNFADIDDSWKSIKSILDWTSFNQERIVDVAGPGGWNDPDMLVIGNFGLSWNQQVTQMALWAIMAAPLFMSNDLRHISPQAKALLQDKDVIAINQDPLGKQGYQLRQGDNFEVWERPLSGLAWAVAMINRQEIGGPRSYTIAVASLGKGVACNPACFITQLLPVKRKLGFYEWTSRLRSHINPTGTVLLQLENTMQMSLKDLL
miR-21 reporter: qHTS Assay for Modulators of miRNAs and/orActivators of miR-21; Potency, µM (top dose mostly 38.3 µM), for inactives: at the top dose reporter change, positive = more light; 340,000 tested, under 10 active; HeLa miR-21 FLuc reporter, luciferase, 48 h; AID 2288, 2010; active = well fitted rising curve with a large enough effect; inconclusive = small, poorly fitted or top-dose-only effect; inactive = no such curve, though single readings can be large or run the other way;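 also: % of control where 0% means no effect; miR-21 action dims this reporter so a rising signal means less miR-21 action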
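HeLa miR-21-FLuc reporter line, endogenous miR-21; 2000 cells/well in DMEM/10% FBS; compound titration up to ~40uM final, 48 h, 37 degree Celsius; luciferase detection reagent, 15 min lysis, CCD luminescence.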
* = called active by the depositor; ? = inconclusive; . = no result given. Some of the compounds tested (hit frequency here may not be typical).

Value order – miR-21 reporter | Rango release inh | GLA inh pH 4.5 | Rango-impB inh
1. Cc1cccc(CN2C(=O)N/C(=C/c3ccc(C)s3)C2=O)c1
→ 14.3% | ? | 1.6 | ?
2. CC1(C)CC(=O)C2=C(C1)N(c1cccnc1)C(N)=C(C#N)C2c1cccs1 (configuration not stated)
→ -1.0% | 8.5% | -3.3 | -0.1%
3. COc1ccc(S(=O)(=O)NC(C)C(=O)NCCN2CCOCC2)cc1Cl (configuration not stated)
→ -0.2% | 0.9% | . | 0.3%
4. COc1ccccc1C(=O)NC(=O)COC(=O)c1ccco1
→ . | 8.2% | . | -1.1%
5. O=C(NCCc1ccccc1)c1cccc(NC(=O)C2CCCCC2)c1
→ . | -2.7% | . | 0.2%
6. O=C(NCc1ccc(OC(F)(F)F)cc1)C12CN(Cc3ccccc3)CC1C(c1cccc([N+](=O)[O-])c1)=NO2 (configuration not stated)
→ 1.6% | 14.3% | -6.6 | 2.3%
7. COc1ccc(CCNC(=O)C2CCN(C(=O)NC3CCCCC3)CC2)cc1
→ -1.6% | 1.3% | -3.5 | -0.1%
8. Cc1nc2c(-c3ccc(F)cc3)cnn2c(N)c1-c1ccc(F)cc1
→ -58.7% | -7.3% | . | -2.6%
9. CC(=O)c1ccc(Nc2c([N+](=O)[O-])ccc3nonc23)cc1
→ -0.1% | 15.3% | . | -0.7%
10. CCCCn1c(=S)[nH]c2ncccc2c1=O
→ -4.6% | 1.3% | 2.0 | -0.2%
11. CCOc1ccccc1NS(=O)(=O)c1c(C)noc1C
→ -34.9% | -8.9% | 0.4 | 0.1%
12. O=C(COC(=O)c1c[nH]c2ccccc12)NC1CCCC1
→ . | 8.5% | . | 0.9%
13. O=C(c1cccc([N+](=O)[O-])c1)N1CCN(Cc2ccccc2)CC1
→ -4.9% | 21.0% | . | -1.8%
14. Cc1cc(C)c(S(=O)(=O)c2ccccc2)c(N(C)C)n1
→ -2.6% | 6.8% | -6.4 | 0.2%
15. COc1cc2c3nnc(-c4ccc(F)cc4)c-3cn(Cc3ccc(F)cc3)c2cc1OC
→ 0.7% | ? | 4.1 | ?
16. O=C(Cc1c(O)c2ccccc2[nH]c1=O)OC1CCCCC1
→ -4.4% | 1.9% | 3.6 | 0.1%
17. Cc1cccn2c(CNCC3OCCc4ccccc43)c(C(=O)N3CCCCC3)nc12 (configuration not stated)
→ 0.3% | -7.8% | 0.6 | -1.3%
18. COC(=O)c1c(NC(=O)CC2Nc3cc(C)c(C)cc3NC2=O)sc(C)c1C (configuration not stated)
→ -9.4% | 2.8% | 3.5 | -2.6%
19. O=c1cc[nH]c2cccc(Cc3ccccc3)c12
→ -8.0% | -9.9% | -8.2 | -1.2%
20. CC(=O)Nc1nc(COc2ccccc2)cs1
→ -46.7% | 20.7% | -12.0 | 5.9%
21. COc1ccc(NC(=O)CSCc2cc(=O)n3c(C)csc3n2)cc1
→ 2.1% | 7.6% | . | 3.3%
22. CCCn1c(N)c(C(=O)CSc2nnc(C3CC3)n2-c2ccccc2)c(=O)[nH]c1=O
→ . | -17.3% | . | 5.8%
23. COc1ccc2nc(SC)cc(C)c2c1
→ 2.1% | -14.8% | -9.3 | 2.1%
24. Cc1nc2nc(-c3cccs3)cn2nc1C
→ -18.0% | ? | 3.0 | 0.9%
25. CCn1c(-c2nn(-c3ccc(C)cc3)ccc2=O)n[nH]c1=S
→ -5.9% | 11.1% | 1.5 | 0.3%
26. CCn1c(O)c(C=NCCN2CCOCC2)sc1=S
→ -6.7% | -6.2% | 2.8 | -1.0%
27. COc1ccc(NC(=O)Cn2c(=O)cnc3ccccc32)cc1S(=O)(=O)N1CCCCC1
→ . | -14.6% | . | -2.3%
28. COc1ccc(NC(=O)CSc2nc(=O)n(CCN3CCOCC3)c3c2CCC3)cc1
→ . | ? | . | ?
29. O=CN/N=C/c1c(O)ccc2ccccc12
→ 29.6% | 2.9% | -2.4 | -2.8%
30. COc1cccc(NC(=O)Nc2nccc(C)n2)c1
→ -46.3% | 8.9% | 2.2 | 2.4%

The last two records of the part above lead into the next.
Value order – miR-21 reporter | Rango release inh | GLA inh pH 4.5 | Rango-impB inh
29. O=CN/N=C/c1c(O)ccc2ccccc12
→ 29.6% | 2.9% | -2.4 | -2.8%
30. COc1cccc(NC(=O)Nc2nccc(C)n2)c1
→ -46.3% | 8.9% | 2.2 | 2.4%
31. O=C(N/N=C/c1cccnc1)c1ccc([N+](=O)[O-])cc1
→ -0.8% | -0.9% | 1.0 | -1.5%
32. Cc1ccc(C)c(NC(=O)CN(C)C(=O)CSCc2c(C)noc2C)c1
→ . | -1.7% | . | -1.7%
33. COc1ccccc1N1CCN(C(=O)c2cccc(N3C(=O)C4C5C=CC(C5)C4C3=O)c2)CC1 (configuration not stated)
→ 3.2% | -26.6% | . | -1.2%
34. COc1ccc(/C=N/NS(C)(=O)=O)c(OC)c1
→ -0.5% | 1.0% | 0.7 | 0.3%
35. COc1cccc(C(=O)OCn2nnc3ccccc3c2=O)c1OC
→ -3.8% | -0.9% | 4.0 | -3.1%
36. Cc1cccc(C(CC(=O)NCCc2ccccc2)c2ccccc2)c1O (configuration not stated)
→ 2.0% | 8.1% | -7.1 | -3.2%
37. COc1ccc(NC(=O)NC2CCN(C(C)C)CC2)c(OC)c1
→ -3.7% | 8.2% | 8.5 | -0.3%
38. CCOC(=O)c1[nH]c(=O)[nH]c1CNc1ccccc1C#N
→ -9.2% | -8.0% | . | -2.7%
39. O=C(Nc1ccc(OC(F)F)c(Cl)c1)[C@@H]1CCCN1C(=O)c1cccs1
→ 3.0% | 1.8% | -5.2 | -0.1%
40. CCNc1ccc([N+](=O)[O-])cc1
→ -12.3% | 0.3% | 5.1 | -2.5%
41. Fc1cccc(CSc2ccc(-c3ccco3)nn2)c1
→ -73.1% | 1.4% | 5.7 | 6.9%
42. COc1ccc(NC(=O)COC(=O)COc2ccc(Br)cc2)cc1
→ -10.2% | -6.1% | 0.8 | -2.0%
43. O=C(CCC(=O)c1ccccc1)Nc1ccc(C(=O)O)cc1
→ -1.6% | 2.2% | . | 2.5%
44. Cc1ccccc1N(CC(=O)NCc1ccco1)C(=O)CCC(=O)Nc1nccs1
→ 2.4% | 14.7% | 8.0 | 5.5%
45. OCCNc1nc(N2CCN(c3ccccc3)CC2)nc2ccccc12
→ -6.3% | 1.9% | . | -0.3%
46. COC(=O)[C@H](Cc1ccccc1)NC(=O)NCCc1ccccc1F
→ -2.4% | 0.6% | . | 0.8%
47. COc1ccc(N(C)S(=O)(=O)c2c(C)noc2C)c(OC)c1
→ 0.1% | -6.3% | -2.2 | 0.4%
48. Cc1ccccc1NC(=O)CN1C(=O)NC2(CCCCCCC2)C1=O
→ . | -3.6% | . | 1.3%
49. COc1ccc([C@H]2CC(=O)C=C(/C=C/c3ccc(C(F)(F)F)cc3)C2)cc1
→ . | 1.6% | . | 0.7%
50. CC1CCCC(C)N1CCCNC(=O)c1ccc2nc(N3CCCCC3)sc2c1 (configuration not stated)
→ -46.5% | -28.3% | . | ?
51. Cc1ccc(S(=O)(=O)n2cnc3ccccc32)cc1
→ -3.0% | -6.1% | -7.4 | 1.1%
52. N#CC1(CCCN2CCCCC2)c2ccccc2CCc2ccccc21
→ . | -6.7% | . | 1.1%
53. CC(C)(C)c1cc(NC(=O)COC(=O)C2CC2)n(-c2ccccc2)n1
→ 2.4% | -15.3% | -1.0 | 1.6%
54. N#Cc1c(NC(=O)/C=C/c2ccco2)sc2c1CCCC2
→ -29.2% | -10.6% | -5.1 | ?
55. COc1cccc(CN(C)Cc2nc3cc(C(F)(F)F)ccc3c(=O)[nH]2)c1
→ 1.7% | 0.9% | -0.7 | 4.9%
56. COCCNC(=O)c1cccc(OC2CCN(Cc3ccccc3OCCO)CC2)c1
→ -1.5% | 18.2% | . | 0.6%
57. COc1ccccc1C(=O)Nc1c(C(=O)N(CCN(C)C)Cc2ccco2)oc2ccccc12
→ ? | 2.9% | . | 2.8%
58. c1ccc(-n2c(-c3cccs3)nc3nc4ccccc4nc32)cc1
→ -1.4% | -15.7% | 12.4 | 2.2%
59. O=C(NCCCNc1ccc(C(F)(F)F)cc1[N+](=O)[O-])c1cc(F)c(F)cc1Cl
→ -1.4% | 4.8% | -23.3 | -0.4%
60. COc1ccc(CCNC(=O)CS(=O)Cc2nc(-c3ccccc3Cl)oc2C)cc1OC (configuration not stated)
→ -8.2% | -11.1% | . | -1.7%

Later entries.
Value order – miR-21 reporter | Rango release inh | GLA inh pH 4.5 | Rango-impB inh
61. Oc1ccc(N2CCN(C(=S)NCCc3ccccc3)CC2)cc1
→ -5.6% | -4.1% | 5.7 | 0.1%
62. CCOC(=O)c1sc(=S)n(-c2ccc(OC)cc2)c1C
→ -0.1% | -14.0% | -27.5 | 2.3%
63. Cc1nc(SCC(O)CCl)c([N+](=O)[O-])[nH]1 (configuration not stated)
→ -3.7% | 0.6% | -15.8 | 3.6%
64. O=C(COC(=O)/C=C/c1ccc(F)cc1)NC1CCCC1
→ . | -9.5% | . | -3.2%
65. C[C@@H]1CN(S(=O)C(C)(C)C)[C@H](CCO)/C1=C\c1ccccc1 (some centres not stated)
→ . | -4.6% | . | ?
66. Cc1ccc(C)c(NC(=S)N(Cc2ccco2)C(C)c2cccs2)c1 (configuration not stated)
→ -0.8% | 5.6% | -7.6 | 0.4%
67. CN(CC(=O)NCCc1ccc(S(N)(=O)=O)cc1)c1ccccc1
→ -1.5% | -0.3% | 3.3 | 1.4%
68. COc1ccccc1CNS(=O)(=O)c1c(C(=O)N2CCCCC2)c(C)n(C)c1C
→ -4.3% | 3.1% | . | 4.3%
69. COc1ccccc1CNC(=O)CCNS(=O)(=O)c1cccc2nonc12
→ -0.8% | 14.1% | . | 2.4%
70. Nc1ccccc1C(=O)NC(=O)Nc1ccc(Oc2ncc(Br)cn2)c(Cl)c1
→ . | -22.0% | . | -6.5%
71. COCCN1C(=O)c2ccccc2C(C(=O)NCc2ccco2)C1c1c[nH]c2ccccc12 (configuration not stated)
→ -5.6% | 0.0% | -1.0 | -5.9%
72. Cc1cc(C)cc(NC(=O)c2sc3nc(C)cc(C)c3c2N)c1
→ -52.9% | ? | . | ?
73. CCN(Cc1ccc(C#CCCO)cc1)CC1CCCN(CCc2cccc(F)c2)C1 (configuration not stated)
→ 10.4% | 2.2% | . | 0.1%
74. CCCSc1ccc([C@@H]2[C@@H]3C(=O)N(C)C(=O)[C@@H]3[C@]3(C(=O)OC)CCCCN23)cc1OC
→ . | -4.4% | . | 0.1%
75. CCc1cc2c(=O)n(CC(=O)NCCc3ccc(OC)c(OC)c3)cnc2s1
→ -0.8% | -4.8% | -1.4 | -5.1%
76. CN(C(=O)C1CCC(=O)N(CCc2ccc(Cl)cc2)C1)C1CCOCC1 (configuration not stated)
→ -1.6% | -11.8% | . | -0.4%
77. COc1ccc(-n2nc3c(c2NC(=O)c2cc(Br)ccc2Cl)CS(=O)C3)cc1 (configuration not stated)
→ 1.6% | -12.3% | -2.2 | -8.0%
78. S=C(N/N=C/c1ccc2ncccc2c1)Nc1cccnc1
→ -8.0% | 7.8% | 0.5 | -2.6%
79. O=C(NCCCCCCNC(=O)N1CCCCCC1)N1CCCCCC1
→ -7.7% | -5.7% | 0.7 | -4.1%
80. CCc1cc(OCCCCNCc2ccccc2)ccc1Cl
→ 12.4% | 2.6% | -8.2 | 1.9%
81. O=C(CSc1nnc(NC2CCCCC2)s1)N1CCOCC1
→ . | -17.6% | . | 0.7%
82. COC(=O)c1ccccc1NC(=O)CSc1nc(C)cc(C)n1
→ -9.8% | -3.8% | 0.3 | 0.5%
83. O=C(NCCO)/C(=C/c1ccc2c(c1)OCO2)NC(=O)c1ccc(Br)cc1
→ -29.3% | 18.3% | -4.7 | -1.3%
84. CCCCC(=O)OCC(=O)c1[nH]c(C)c(C(=O)OCC)c1C
→ -11.5% | -14.6% | -2.6 | 4.3%

Screens deposited in PubChem by National Center for Advancing Translational Sciences (NCATS).
